Screening data: PubChem BioAssay, several laboratories
Rce1 inh: inhibitors of yeast Ras-converting enzyme. Q03530. yeast membranes, quenched prenylated peptide cleavage fluorescence. calls only. 0.27% of 290,000 active;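 active means fall in fluorescence gain of 50% or more versus controls, with final raw signal at or below 3038400; inconclusive means same 50% fall but final raw signal above 3038400; inactive means fall in fluorescence gain under 50%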;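 further: plate controls were neutral control wells for no effect and wells lacking membranes for full effect; tested at 10 µM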
Target sequence (Q03530 whole entry, looked up): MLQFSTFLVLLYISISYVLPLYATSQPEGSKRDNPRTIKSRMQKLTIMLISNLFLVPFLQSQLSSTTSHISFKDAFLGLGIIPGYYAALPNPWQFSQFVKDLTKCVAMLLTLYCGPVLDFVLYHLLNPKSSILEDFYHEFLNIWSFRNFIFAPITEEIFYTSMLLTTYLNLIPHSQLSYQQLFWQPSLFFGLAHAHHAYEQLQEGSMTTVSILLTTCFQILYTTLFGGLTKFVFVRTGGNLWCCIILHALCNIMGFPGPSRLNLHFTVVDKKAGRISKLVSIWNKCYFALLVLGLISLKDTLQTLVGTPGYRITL
Yeast UUG start: yeast start codon fidelity modulation; S. cerevisiae UUG-firefly luciferase reporter, luminescence/redox ratio; 0.13% of 350,000 active; activity score, % at 18.7 µM; AID 602363;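 active means replicate mean at a twofold rise or more, about +100% in these data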;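 further: firefly luciferase made from a UUG start codon reports start codon fidelity; reporter light over untreated wells divided by growth signal over untreated wells; some hits fall short of that in this replicate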
MT1-MMP act inh: inhibitors of human MT1-MMP activation. P50281. HT1080 RFP-PRO-GFP cells, GFP/RFP ratio fluorescence, overnight; percent of plate control window, DMSO zero. GFP/RFP ratio change, % at 20 µM. 0.061% of 360,000 active. AID 651647;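 active means GFP/RFP ratio change of at least 30% with cell ATP level not reduced by more than half and red fluorescence within 50% of control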; further: strong numbers were not always called active
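Test system: HT1080 cells expressing an RFP-PRO-GFP fluorescent reporter construct / Compound dosing: single-point 20 µM compound, 1% DMSO / Schedule: cells overnight before dosing, compound overnight, 37 °C, 5% CO2 / Evaluation: GFP/RFP fluorescence ratio / Control set: DMSO and RFP-L50D-GFP cell wells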
eIF4H inh: inhibitors of RNA binding by human eIF4H; inhibition, % at 35 µM; AID 2012; 0.94% of 290,000 active; eIF4H fluorescence polarization binding assay; Q15056;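 active means 50% or more with normal probe brightness, or confirmed in later tests; inconclusive means above 50% with abnormal brightness, or retests that disagree; inactive means below 50% or failed in later tests; about a fifth of its hits are not listed in these tables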;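 further: calls also rest on retests at 20 µM and on dose response follow-up; 0% = protein and probe with vehicle and 100% = probe without protein; strong numbers were not always called active; many hits fall short of the cut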
CSC inhib: blocks cancer stem cells; inhibition, % at 7.5 µM; AID 2717; cancer stem cell-like cells viability, luminescence; 1.1% of 300,000 active;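 active means mean at 75% or more and at least half the replicates too; inconclusive means mean and replicates disagree; tested in HMLE shEcad cells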;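 further: 0% = median of negative and 100% = median of positive control wells; the first replicate is given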
HIV Env fusion: inhibitors of HIV Env-mediated cell fusion; AID 651610; HeLa-JRFL Env/CEM21 cell fusion, luciferase; 1.1% of 360,000 active; inhibition, % at 12.3 µM;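 active means mean replicate inhibition score of at least 50 and every replicate individually at or above 50; inconclusive means only one of the two criteria met; inactive means mean below 50 and not all replicates reaching 50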;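 further: 0% = plate neutral controls and 100% = maraviroc near 300 nM; one replicate is shown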
PABP FP inh: blocks human PABP binding to poly(A) RNA. P11940. fluorescence polarization. inhibition, % at 35 µM. 1% of 290,000 active;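 active means 50% or more with normal probe brightness, or confirmed in later tests; inconclusive means above 50% with abnormal brightness, or retests that disagree; inactive means below 50% or failed in later tests; about a fifth of its hits are not listed in these tables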;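 further: calls also rest on retests at 20 µM and on dose response follow-up; controls were probe without protein and protein plus probe with vehicle; some compounds called inactive have numbers as strong as hits; many hits fall short of the cut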
eIF4H inh retest: also measured in eIF4H inh; calls as there; inhibition, %; compound at 20 µM; confirmation average;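 mean of two retest wells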
PABP FP inh retest: recorded beside PABP FP inh, whose call it bears; inhibition, %; compound at 20 µM; confirmation repeats;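 mean of two retest wells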
MT1-MMP act inh RFP: second read-out of MT1-MMP act inh, no call of its own (marks repeat the call); RFP signal change, %; measured here: RFP expression control read;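 0 = vehicle wells; hits needed this value within 50% of zero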
* = called active by the depositor; i = inactive; ? = inconclusive; nt = no result given; + = active, no number. This is a subset. The share of hits here may be higher or lower than overall.

SMILES	Rce1 inh	Yeast UUG start	MT1-MMP act inh	MT1-MMP act inh RFP	eIF4H inh	CSC inhib	HIV Env fusion	PABP FP inh	others
Cn1cc(/C=C2\C(=O)NC(=O)N(c3ccccc3)C2=O)c2ccccc21	i	-18	-7	1	?	-4	-53	?
CCOC(=O)CNC(=O)N1Cc2cc(-c3cccc(F)c3)ccc2-n2nncc2C1	nt	-2	4	7	nt	nt	-8	nt
COc1ccc(-n2c(=O)[nH]c3ccccc3c2=O)cc1	i	-3	-2	0	1	4	-3	-11
Cc1ccccc1CN1CCN(C(=O)Cc2ccccc2)CC1	i	nt	-2	-1	12	-3	20	10
COC1=C(C)C(=O)O[C@]12C(=O)C(C)=C1CCCCN3[C@H]([C@@H]4C[C@H](C)C(=O)O4)CC[C@]132	nt	-18	-4	-5	nt	-11	-28	nt
COc1ccc(C(=O)C2CN(C)CC2c2ccc(Cl)cc2)cc1 (stereo not drawn)	i	nt	-2	-3	-11	0	2	8
COc1ccc(-n2c(O)c(/C=C/C=Nc3ccccc3)c(=O)[nH]c2=O)cc1	i	nt	-100	0	?	nt	nt	?
O=C1NC(=O)N(c2ccc(Br)cc2)C(=O)/C1=C/c1ccsc1	i	nt	-15	8	106	-7	-4	6	eIF4H inh retest=-2;PABP FP inh retest=1
Cc1nn(C2CCOC(C)(C)C2)c2c1C(c1ccc3c(c1)OCO3)SCC(=O)N2 (stereo not drawn)	i	-3	5	8	-1	0	nt	4
O=C(CCc1nc(-c2ccccc2F)no1)N1CCC2(CC1)OCCO2	i	22	2	0	-5	nt	nt	-3
C[C@@H](N)Cc1cnc[nH]1	i	-3	4	2	nt	-3	1	nt
CC(C)(C)C(=O)Nc1ccc(S(=O)(=O)N2CC3CC(C2)c2cccc(=O)n2C3)cc1 (stereo not drawn)	i	-5	3	6	-16	-7	-13	2
c1ccc(C2CC3CC4(CCCC4)N2O3)cc1 (stereo not drawn)	i	-5	14	0	-5	5	nt	-3
O=c1[nH]c2ccccc2n1C1CCN(C(CCc2ccccc2)c2nnnn2C2CCCC2)CC1 (stereo not drawn)	nt	-8	-27	-28	nt	nt	-30	nt
CN(C)c1ccc(CN2CC=C(c3ccc(F)cc3)CC2)cc1	i	-10	9	5	4	12	16	24
CCN(CC)CCCC(C)N=C(c1ccccc1)c1c(O)n(C)c(=O)n(C)c1=O (stereo not drawn)	i	3	-1	6	-7	-6	nt	13
O=P1(Oc2ccccc2)OCCCS1 (stereo not drawn)	i	nt	1	-4	6	1	0	-10
COc1ccc(C(=O)C2CCCN(C3CSCCSC3)C2)c(OC)c1 (stereo not drawn)	i	-8	-1	-2	12	78*	4	-6
COP(=O)(/C=C(\Cl)c1ccccc1)/C=C(\Cl)c1ccccc1	i	20	7	1	-1	2	-10	6
COc1ccc(C(=O)c2nc3ccccc3n2C(C)C)cc1	i	nt	4	3	-2	-5	22	4
Cc1ccnc(-n2c(-c3ccccc3)nc3ccccc3c2=O)c1	i	-10	1	-2	-10	-5	-71	3
C[n+]1ccc(-c2ccccc2)c2ccccc21	+	-8	3	-22	nt	-18	16	nt
COc1cccc(C(c2nnnn2C2CCCC2)N2CCC3(CC2)C(=O)NCN3c2ccccc2)c1OC (stereo not drawn)	nt	-2	4	-7	nt	nt	-65	nt
CCCCC1(CN2CCCC2=O)C(=O)NC(=O)NC1=O	nt	1	-3	0	-4	nt	nt	-6
CCOC(=O)CSCCOc1ccc(C=C2C(=O)NC(=O)NC2=O)cc1OC	i	-7	-1	3	17	0	2	-4
Further structures
SMILES	Rce1 inh	Yeast UUG start	MT1-MMP act inh	MT1-MMP act inh RFP	eIF4H inh	CSC inhib	HIV Env fusion	PABP FP inh	others
CC(=NCCN1CCCCC1)c1c(O)n(-c2ccccc2)c(=O)[nH]c1=O	i	nt	-3	3	-3	-15	3	3
Cc1cc(OCC(=O)OC(C)C)c2c3c(c(=O)oc2c1)CCCC3	i	-23	-2	-8	2	-20	nt	1
CN(C)CC1CSCCC1(O)c1ccc(C(F)(F)F)cc1 (stereo not drawn)	i	-12	-1	2	-9	1	8	-15
COc1cccc(CCNCc2ccc(SC)cc2)c1	i	-13	2	6	-3	0	-33	0
Fc1ccc(C[n+]2c(-c3ccccc3)cc(-c3ccccc3)cc2-c2ccccc2)cc1	i	nt	nt	nt	nt	37	37	nt
CCN1C(=O)NC(=O)/C(=C\c2cn(CC(=O)N3CCCCC3)c3ccccc23)C1=O	i	-31	-4	1	?	-4	-10	?
Cc1cccc(N2C(=O)NC(=O)/C(=C/c3ccc(N4CCOCC4)cc3)C2=O)c1	i	nt	2	9	14	10	5	1
COCCO[C@H]1CC[C@@]2(C)C(=CCC3C2CC[C@@]2(C)C3CC[C@]2(C)O)C1 (stereo partly drawn)	nt	-4	7	-11	nt	35	-6	nt
S=P(NCCNP(=S)(N1CC1)N1CC1)(N1CC1)N1CC1	nt	-16	-8	-2	nt	nt	22	nt
O=C(c1ccccc1F)c1cn(CC(=O)N2CCCCC2)c2ccccc12	i	16	-5	0	-10	-1	14	-1
COC(=O)C1=C(c2ccccc2OCc2ccccc2)C[C@@H]2CC[C@H]1N2C(=O)NCCOc1ccccc1	nt	-9	-3	-1	nt	33	15	nt
CCCC[N+]12CCC(CC1)C(=C(c1ccccc1)c1ccccc1)C2	i	nt	-5	-3	-8	2	-1	-1
CCN1CCN(c2nc3c(c(=O)[nH]2)CCC3)CC1	i	-16	-2	1	-1	-3	-11	-7
CCOC(=O)C1(c2ccccc2)CCN(CCC(=O)Nc2ccc(OC)cc2)CC1	nt	4	0	0	nt	nt	-27	nt
CCOP(=S)(OCC)Oc1cc(C)oc(=O)c1Cl	i	nt	0	0	-3	-15	-19	7
CCCCn1c(O)c(C(CC)=NCc2cc(OC)cc(OC)c2)c(=O)[nH]c1=O	i	-6	-7	-8	0	nt	nt	-3
C=C1C(=O)O[C@H]2C[C@@H](C)[C@@H]3C=CC(=O)[C@@]3(C)C[C@H]12	i	nt	nt	nt	-10	89*	-193	2
CCN(CC)C(=O)c1ccc(NC(=O)COc2ccc([N+](=O)[O-])cc2Cl)cc1	i	19	5	-6	2	15	7	-3
OC(CCNCCc1c[nH]c2ccccc12)C(F)(F)Cl (stereo not drawn)	i	nt	0	3	-4	1	1	68	eIF4H inh retest=7;PABP FP inh retest=-1
CC(=NCCCO)c1c(O)[nH]c(=O)[nH]c1=O	i	-4	-1	0	2	-15	1	-4
O=C(COc1ccc(Br)cc1)N1CCN(C2CCCC2)CC1	i	-9	2	-2	0	-9	nt	7
COc1cc(/C=C/[N+](=O)[O-])ccc1OC(=O)c1cccnc1	i	-17	-3	-1	-8	66	-9	11
Cc1cccc(N2C(=O)NC(=O)/C(=C\c3ccc4c(c3)CCCN4Cc3ccccc3)C2=O)c1	i	nt	-6	4	?	-1	-5	3
C=C1C2[C@H](OC(C)=O)[C@@H]3CC(=O)[C@]4(C)OC[C@@]3(C)[C@@]4(O)[C@@H](OC(C)=O)[C@H](OC(C)=O)[C@@]2(COC(=O)c2ccccc2)[C@@H](OC(C)=O)C[C@@H]1O (stereo partly drawn)	i	-1	1	5	-3	2	nt	-5
CCCNS(=O)(=O)c1ccc(OCC(=O)N2CCN(Cc3ccc4c(c3)OCO4)CC2)c(C)c1	i	nt	-1	-28	nt	7	9	nt
C=CCOC(=O)C1=C(C)OC(N)=C(C(=O)OCC)C12C(=O)N(CC(N)=O)c1ccccc12 (stereo not drawn)	i	3	0	0	14	1	-36	4
O=C(Nc1c(F)cc(F)cc1F)c1cccn(Cc2ccccc2)c1=O	i	nt	10	-8	11	-7	6	23
CCCCn1c(O)c(C(C)=NCCN2CCCCC2)c(=O)[nH]c1=O	i	-32	-12	3	8	-17	-68	20

In the list so far, these contain an aryl methoxy group:
SMILES	Rce1 inh	Yeast UUG start	MT1-MMP act inh	MT1-MMP act inh RFP	eIF4H inh	CSC inhib	HIV Env fusion	PABP FP inh	others
COc1ccc(-n2c(=O)[nH]c3ccccc3c2=O)cc1	i	-3	-2	0	1	4	-3	-11
COc1ccc(C(=O)C2CN(C)CC2c2ccc(Cl)cc2)cc1 (stereo not drawn)	i	nt	-2	-3	-11	0	2	8
COc1ccc(-n2c(O)c(/C=C/C=Nc3ccccc3)c(=O)[nH]c2=O)cc1	i	nt	-100	0	?	nt	nt	?
COc1ccc(C(=O)C2CCCN(C3CSCCSC3)C2)c(OC)c1 (stereo not drawn)	i	-8	-1	-2	12	78*	4	-6
COc1ccc(C(=O)c2nc3ccccc3n2C(C)C)cc1	i	nt	4	3	-2	-5	22	4
COc1cccc(C(c2nnnn2C2CCCC2)N2CCC3(CC2)C(=O)NCN3c2ccccc2)c1OC (stereo not drawn)	nt	-2	4	-7	nt	nt	-65	nt
CCOC(=O)CSCCOc1ccc(C=C2C(=O)NC(=O)NC2=O)cc1OC	i	-7	-1	3	17	0	2	-4
COc1cccc(CCNCc2ccc(SC)cc2)c1	i	-13	2	6	-3	0	-33	0
CCOC(=O)C1(c2ccccc2)CCN(CCC(=O)Nc2ccc(OC)cc2)CC1	nt	4	0	0	nt	nt	-27	nt
CCCCn1c(O)c(C(CC)=NCc2cc(OC)cc(OC)c2)c(=O)[nH]c1=O	i	-6	-7	-8	0	nt	nt	-3
COc1cc(/C=C/[N+](=O)[O-])ccc1OC(=O)c1cccnc1	i	-17	-3	-1	-8	66	-9	11
